HCMV UL50-53 inh: inhibitors of HCMV UL50-UL53 interaction, biochemical, HTRF | HCMV UL50-UL53 nuclear egress complex (human cytomegalovirus) | inhibition, % (no concentration beside the values) | AID 1918969, 2023 | normalized percent inhibition | 190,000 tested, 0.15% active;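 active = both replicates at 50% or more, plus weaker picks with an unusually low signal ratio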;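 note: stock transfer was 100 nL into about 20 µL; 0% = negative control wells and 100% = wells with untagged competitor protein; inactives centre near -12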
GIV-Gai inh: inhibitors of GIV peptide binding to Galpha-i3, primary screen, biochemical, fluorescence polarization, FITC-GIV GBA peptide, rat Galphai3; 90 min; active compounds read low; scaled: aluminum fluoride 0%, vehicle 100%; 210,000 tested, 0.42% active; Guanine nucleotide-binding protein G(i) subunit alpha-3 (Rattus norvegicus), P08753; AID 1224905, 2016; percent of control (FP), % (test concentration not listed);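 active = replicate mean at 85% of control or lower, very high polarization wells dropped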;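 note: lower values mean more displacement of the GIV peptide from Galpha-i3; wells of about 15 µL received 100 nL stock; the first replicate is given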
Target sequence (P08753 whole entry, looked up): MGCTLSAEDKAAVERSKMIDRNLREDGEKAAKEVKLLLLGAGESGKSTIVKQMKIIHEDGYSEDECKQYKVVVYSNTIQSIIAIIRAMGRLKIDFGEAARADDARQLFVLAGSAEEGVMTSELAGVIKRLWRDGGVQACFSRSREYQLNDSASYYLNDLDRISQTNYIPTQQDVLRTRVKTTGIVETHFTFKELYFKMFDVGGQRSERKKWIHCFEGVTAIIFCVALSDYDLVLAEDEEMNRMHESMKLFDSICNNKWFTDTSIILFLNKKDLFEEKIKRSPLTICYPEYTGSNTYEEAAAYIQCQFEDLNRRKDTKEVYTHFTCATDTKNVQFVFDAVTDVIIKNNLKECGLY
Sa growth 42C: S. aureus growth inhibition at 42 and 30 °C, primary screen, LtaS inhibitor project, RN4220, two temperatures; OD600, 20 h, 42 °C; active compounds read low; relative growth, % (concentration not given with the values); 170,000 tested, 0.53% active; AID 720641, 2013;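 active = growth at 42 °C up to 50% and 20 or more points under that at 30 °C, or under 10% at both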;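 note: 300 nL library stock went into each well; scaled to the means of positive and negative controls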
Sa growth 42C second temp: further read-out of Sa growth 42C, marked with its call; relative growth, %; measured here: growth at 30 °C;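 optical density after 20 h as mean of two plates; 100% = untreated growth and lower means inhibition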
* marks the source's active call; other numbers are inactive results; & = joins results of further samples.

For CCC1C(=O)OCC1Cc1cncn1C (stereo not drawn) the results were HCMV UL50-53 inh -35.2&-10.2&-62.1, GIV-Gai inh 102.7, Sa growth 42C 92.5 and Sa growth 42C second temp 88.1.

This is a subset; count on the stated rates, not on these rows.
